ClpP mod: qHTS Assay for Activators of ClpP; purified B. subtilis ClpP, FRET peptide cleavage, 20 min; ATP-dependent Clp protease proteolytic subunit (Bacillus subtilis (strain 168)), P80244; 1.9% of 340,000 active; Potency, µM (top dose mostly 57.5 µM), inactives show top-dose activity change, negative = active; AID 651965, 2013; active = well fitted falling curve with a large enough effect; inconclusive = small, poorly fitted or top-dose-only effect; inactive = no such curve, though single readings can be large or run the other way; further: potency means the concentration at half of the fitted maximal effect; the source files actives as falling curves though it sought activators and does not explain the sign; nearly all actives have a fitted effect of over 65% in size; many hits overshoot -100%
Target sequence (P80244 whole entry, looked up): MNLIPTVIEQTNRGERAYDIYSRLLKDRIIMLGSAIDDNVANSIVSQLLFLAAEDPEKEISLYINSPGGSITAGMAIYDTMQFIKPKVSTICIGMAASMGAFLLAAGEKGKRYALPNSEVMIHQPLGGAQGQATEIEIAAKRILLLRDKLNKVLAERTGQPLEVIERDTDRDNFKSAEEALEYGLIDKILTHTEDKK
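Buffer: 100 mM Tris/HCl pH8, 100 mM KCl, 0.05% low protease BSA, 2.5% glycerol, 0.01% Tween-20. ClpP 10 microg/mL final; 20 min RT; delta FRET normalized to ADEP and DMSO controls.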
Sfp PPTase inh: Sfp phosphopantetheinyl transferase inhibition; Potency, µM, inactives show max response, negative = inhibition, hits mostly inhibitors; Q9F4F7; 3.5% of 310,000 active; Biochemical Sfp PPTase activity, qHTS; active means well fitted inhibition curve with a large enough effect; inconclusive means small, poorly fitted or top-dose-only effect, or another doubt; inactive means no such curve, though single readings can be large or run the other way;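 further: the enzyme is Sfp with the accession as filed and its product quenches rhodamine fluorescence; potency means the concentration at half of the fitted maximal effect; 0% = enzyme reaction without inhibitor and -100% = no enzyme wells; top concentration of the series not given in the record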
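Fluorescence-quenching assay with 15 nM Sfp, 5 uM rhodamine-CoA and 12.5 uM BHQ-2-labelled ybbR peptide in pH 7.6 Hepes/MgCl2 buffer. Enzyme was pre-incubated with compound for 15 min at room temperature. Rate was taken from the 30-min fluorescence change (525/598 nm).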
gsp antagonist: antagonists of gsp mutant (McCune-Albright syndrome) | gsp-mutant cells, cAMP HTRF, 30 min; control for the full effect not named in the record | 0.4% of 340,000 active | Potency, µM (doses to about 76.9 µM), for the others: top-dose activity change, negative = inhibition, actives largely listed as inhibitors; active = falling curve of any shape with a large fitted effect; inconclusive = falling curve, mostly with a smaller effect; inactive = flat or rising curve; cell line not stated here;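 further: intracellular cAMP measured with PDE inhibitor Ro 20-1724 present during compound exposure; potency means the concentration at half of the fitted maximal effect; on the % scale 0 is the no-effect control and ±100 the full control effect; nearly all actives have a fitted effect of over 65% in size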
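Cells, 2000/well, grown 16–24 h in DMEM 10% FBS with 0.5 mg/ml G418, then compounds plus […] (300 uM addition stock), 30 min at 37C. cAMP read by HTRF (cAMP-d2 and anti-cAMP antibody-K in lysis buffer) after 30 min RT.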
gsp agonist: gsp mutant agonism. gsp mutant cells, cAMP HTRF, 30 min; control for the full effect not named in the record. Potency, µM (doses to about 76.9 µM), for inactives: top-dose activation (cAMP increase), hits mostly activators. 0.13% of 340,000 active. AID 624287; active = well fitted activation curve with a large enough effect; inconclusive = small, poorly fitted or top-dose-only effect, or another doubt; inactive = no such curve, though single readings can be large or run the other way; cell line not stated here;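 further: phosphodiesterase inhibitor Ro 20-1724 added with compounds to block cAMP breakdown; potency means the concentration at half of the fitted maximal effect; nearly all actives have a fitted effect of over 60% in size; about a fifth of the inactives were tested at one dose only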
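Cells stably selected in G418 were plated at 2000/well, grown 16-24 hr, then given compounds in DMSO with the PDE inhibitor […] (300 uM solution added) for 30 min at 37C; cAMP was read by HTRF.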
D2 ag: activates the human D2 dopamine receptor | P14416 | DiscoveRx PathHunter D2 beta-arrestin, luminescence, 90 min; 100% = 57 uM dopamine signal | activation, % (test concentration not listed) | 0.084% of 360,000 active | AID 624465; in the data active = activation above about 40%; inconclusive = about 15% to 40%; inactive = below about 15%; further: compound concentration not given in the record; the text of the record calls up to 30% inactive
Target sequence (P14416 whole entry, looked up): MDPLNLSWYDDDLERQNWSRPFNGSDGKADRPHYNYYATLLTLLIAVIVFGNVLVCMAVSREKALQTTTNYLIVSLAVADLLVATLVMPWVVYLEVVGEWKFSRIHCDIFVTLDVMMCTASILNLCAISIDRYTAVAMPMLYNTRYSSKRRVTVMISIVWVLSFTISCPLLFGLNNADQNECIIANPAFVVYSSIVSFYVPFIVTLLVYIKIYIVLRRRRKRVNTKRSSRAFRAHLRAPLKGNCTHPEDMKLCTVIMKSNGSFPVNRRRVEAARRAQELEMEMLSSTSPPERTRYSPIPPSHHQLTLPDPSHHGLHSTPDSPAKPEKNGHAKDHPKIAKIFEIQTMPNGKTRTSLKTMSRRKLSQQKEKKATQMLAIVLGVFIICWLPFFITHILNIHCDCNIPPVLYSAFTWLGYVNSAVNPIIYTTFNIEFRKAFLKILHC
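DiscoveRx PathHunter D2 beta-arrestin cells (2,100/well) attached overnight, then compound-stimulated 90 min at 37 C in HBSS/10 mM HEPES/0.1% Tween-20 buffer; beta-galactosidase complementation read by luminescence after 1 h at ambient temperature. Dopamine 57 uM final (EC100) as control.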
Menin-MLL FL inh: menin-MLL binding inhibition, fluorescein peptide. Fluorescence polarization, fluorescein-MLL peptide displacement from menin. FP activity change, % at 61.4 µM. 290,000 tested, under 10 active; inconclusive = falling polarisation curve, or a change in total fluorescence; inactive = total fluorescence flat and polarisation flat or rising; no compound was filed as active; the % refers to the polarisation; negative = inhibition;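 further: % of control where 0% means no effect; inhibitors lower the polarisation; unlabelled MLL peptide was the positive control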
PINK1 expr mod: changes PINK1 expression | 0.2% of 410,000 active | Potency, µM (doses to about 76.6 µM), for the others: top-dose activation (PINK1 increase), most hits filed as activators | PINK1 immunofluorescence, high-content cytometry, 24 h; active = well fitted activation curve with a large enough effect; inconclusive = small, poorly fitted or top-dose-only effect; inactive = flat fitted curve, though single readings scatter; cell line not stated here;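 further: potency means the concentration at half of the fitted maximal effect; % of control where 0% means no effect; nearly all actives have a fitted effect of over 65% in size; a mitochondrial uncoupler was the plate control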
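Stable cell line treated 24 h with compounds at 5 concentrations (CCCP controls), then fixed and immunostained for PINK1 plus nuclear and cell stains; PINK1 immunofluorescence quantified by laser-scanning microplate cytometry.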
An asterisk follows results filed as active; ? = inconclusive; . = no result given; & = joins results of further samples; [ ] = another dose, or the depositor's remark. Not a hit list. About 5.1% of those tested had a hit in this group.

SMILES	ClpP mod	Sfp PPTase inh	gsp antagonist	gsp agonist	D2 ag	Menin-MLL FL inh	PINK1 expr mod
CO/N=C/CC(=O)c1cnc(-c2ccc(Cl)cc2)s1	.	4%	-3%	18%[15.4 µM]	-8.2	1.0	3.0%
CCN(CC)C(=O)C1=C(C)N(CCCN2CCCC2=O)C(=O)C(CC(=O)NCc2ccco2)C1 (centres undefined)	1.9%	.	.	-38%[inhibitor]	-7.3	.	3.1%
O=C(/C=C/c1cccc([N+](=O)[O-])c1)Nc1cc(C(=O)O)cc(C(=O)O)c1	.	10%	.	-12%[15.4 µM]	1.8	2.1	2.0%
CCCCCCN1C[C@@H](O)[C@H](n2cc(-c3ccc(F)cc3)nn2)C[C@@H]1c1ccc(C)cc1	-3.8%	.	.	?	1.2	.	16%
COc1ccc(CCn2nnnc2C(CC(C)C)N2CCN(c3ncccn3)CC2)cc1OC (centres undefined)	-0.2%	?	1%	1%	-0.8	2.6	2.9%
O=C(Oc1ccccc1)N1CCN(C(=O)c2ccco2)CC1	-1.9%	0%	-8%	12%[15.4 µM]	-0.1	-7.2	-1.4%
Cc1cccc(NC(=O)CSCC(=O)Nc2ccc(S(=O)(=O)N3CCCCC3)cc2)c1	.	.	-9%	-19%[15.4 µM]	1.1	.	4.5%
COCCn1c(=O)c(C)nc2cnc(N3CCOCC3)nc21	.	21%	.	.	.	5.3	0.2%
COc1cc(C(=O)OCC(=O)N2CCC(Cc3ccccc3)CC2)cc(OC)c1OC	-1.7%	.	-2%	4%[15.4 µM]	-1.2	.	-0.9%
CC(=O)c1c(C)[nH]c(C2=NNC(=NCc3ccccc3)SC2)c1C	-13%	50µM*	-10%	15%	-4.4	7.0	-0.2%
CC(=O)Nc1ccc(NC(=O)C(C)N2CCN(S(=O)(=O)c3ccc(C)cc3)CC2)cc1 (centres undefined)	-3.4%	3%	2%	1%[15.4 µM]	-1.3	-0.7	0.8%
CCN(CC(=O)Nc1ccc(NC(C)=O)cc1)C(=O)c1n[nH]c(=O)c2ccccc12	.	18%	.	3%[15.4 µM]	-2.2	-10	0.6%
CC(=O)N1CCc2c(sc3c2c(=O)n(-c2ccccc2)c(=O)n3Cc2ccccc2Cl)C1	-3.4%	?	32%[activator]	-8%	-0.7	9.8	5.1%
O=C1C=C(OCc2ccccc2)CN1	1.3%	-2%	7%	-36%[inhibitor]	-4.2	1.2	3.6%
O=C(CCC(=O)N1CCOc2ccc(Cl)cc21)NCc1ccccc1	-0.4%	-3%	-8%	-27%	0.2	0.6	-0.4%
Cc1ccc(OCC(=O)NNC(=O)c2ccoc2C)c(Br)c1	-5.1%	10%	-2%	0%	-3.4	2.4	-0.2%
CN(Cc1ccccc1)S(=O)(=O)c1ccc(NC(=S)NC(=O)C2CCCCC2)cc1	-1.8%	14%	6%	-16%[15.4 µM]	-12	-7.7	1.4%
Cc1c(NC(=O)c2cc(-c3ccc(Br)cc3)on2)c(=O)n(-c2ccccc2)n1C	-2.2%&0.0%	3%	-4%	-1%[15.4 µM]	-9.6	6.5	1.5%&0.5%
CCC(=O)N1CCN(c2ccccc2NC(=O)Cc2ccccc2)CC1	-2.5%	0%	-2%	?	0.0	2.6	-0.9%
O=C(O)C1=C[C@H](c2ccc3c(c2)OCO3)C[C@H](OCc2ccc(CO)cc2)O1	-18%	.	-3%	.	3.9	.	0.1%
COc1ccc(N2CC(NS(=O)(=O)c3ccc4ccccc4c3)CC2=O)cc1OC (centres undefined)	.	.	-6%	25%[15.4 µM]	-2.0	.	-1.3%
C/C(=N/NC(=O)Nc1ccccc1)c1ccc(C)cc1	2.6%	3%	1%	4%	0.5	3.5	3.1%
Cc1ccc(C2=NNC(c3cccc(F)c3)S2)cc1 (centres undefined)	-4.8%	10%	6%	?	-1.1	19	1.7%
CN(CC(=O)Nc1ccc(Cl)c(C(F)(F)F)c1)C(=O)c1ccccc1SCC(=O)N1CCCC1	-4.0%	.	-29%	-19%	0.0	.	-1.7%
Cc1cccc(-c2nc(CS(=O)CC(=O)NC(C)CCc3ccccc3)c(C)o2)c1 (centres undefined)	-8.0%	-3%	-6%	?	5.3	-0.2	0.3%
N#C/C(=C\c1ccc(O)c([N+](=O)[O-])c1)C(=O)NCc1ccccc1	-0.6%	-19%	?	-9%	-6.2	2.7	8.9%
CCOc1ncccc1C(=O)Nc1cc2c(cc1Br)OCCO2	-6.5%	.	?	-8%	-1.6	.	5.9%
CC(Nc1cc(=O)n(C)c(=O)n1C)c1ccccc1 (centres undefined)	-2.1%	7%	6%	-54%[inhibitor]	-3.5	0.1	0.0%
CSc1ccc(CSCC(=O)N2CCN(S(=O)(=O)c3ccc(C)cc3C)CC2)cc1	-4.3%	.	?	?	3.1	.	2.5%
CC(=O)Nc1ccccc1OCC(=O)NC1CCCCC1C (centres undefined)	-1.4%	.	4%	?	2.8	.	0.0%
S=c1[nH]nc(Nc2ccccc2Cl)s1	.	-93%	.	7%[15.4 µM]	-6.4	-0.7	1.5%
Cc1cc(C(=O)Nc2sccc2C#N)c2ccccc2n1	.	-14%	-19%	-7%[15.4 µM]	1.8	16	2.5%
O=C(c1cccc([N+](=O)[O-])c1)N1CCN(c2ccc(N3CCOCC3)nn2)CC1	-3.5%	.	-15%	8%[15.4 µM]	-1.4	.	-1.5%
N#Cc1ccccc1S(=O)(=O)N1CCN(C(=O)CN2C(=O)NC3(CCCC3)C2=O)CC1	.	.	13%	5%[15.4 µM]	-0.5	.	0.8%
CC(=O)NC12CC3CC(C1)CC(C(=O)N(C)Cc1cccc(Cl)c1Cl)(C3)C2	0.0%	11%	-6%	18%	-5.2	.	-0.5%
O=C(CCSCc1ccccc1Cl)N1CCN(c2ccccn2)CC1	?	-19%	-14%	0%	-0.2	-1.4	7.9%[38.3 µM]
CCOc1cccc(OCCOCCNC(C)(C)C)c1	?	-25%	12%	?	-5.8	5.3	2.2%
Cc1ccccc1N(CC(=O)Nc1ccc(F)cc1)S(C)(=O)=O	1.9%	12%	14%	2%	-1.1	3.0	0.4%
CC(C)(C)c1nn(-c2ccccc2)c2[nH]c(=O)c(CNCc3ccco3)cc12	?	13%	3%	-10%	-5.9	9.9	15%
COCCNC(=O)c1onc(CSc2ccccc2)c1C(=O)O	-0.1%	11%	9%	.	-1.3	2.7	-0.8%
Cc1ccc(Nc2nc(N)nc(CSc3nncn3C)n2)cc1	1.5%	-5%	7%	?	-2.2	-3.6	1.1%
CCOC(=O)NCC(C#CCN(CC)CC)N(CC)CC (centres undefined)	0.9%	9%	-7%	-2%	-2.7	-1.2	-1.4%
COc1ccc(C(=O)NNC(=O)CSc2nc3c([nH]2)c(=O)n(C)c(=O)n3C)cc1	-0.2%	?	-2%	?	1.0	-0.2	0.7%
O=C(Nc1cccc(-c2nc3cccnc3s2)c1)C1c2ccccc2Oc2ccccc21	-9.1%	6%	-14%	-28%	-0.2	11	6.5%
CC1(C)CC2(CCO1)OC(=O)CC2C(=O)Nc1c(Cl)cccc1Cl (centres undefined)	0.3%	-10%	14%	-28%	-3.6	7.2	-0.7%
Cc1cccc(NC2=C(C#N)C(=O)NC3(CCCC3)S2)c1	1.4%	18µM*	1%	-21%	-0.2	-17	0.7%
COc1ccc(S(=O)(=O)N2CCc3ccccc32)cc1C(=O)Nc1ccc(C(N)=O)cc1	-9.2%	.	-8%	6%	0.8	.	-1.2%
COC(=O)N[C@@H]1C[C@H]2[C@@H]3CC[C@H]4C[C@@H](OC)CC[C@]4(C)[C@H]3CC[C@]12C	2.0%	.	-17%	.	1.7	.	4.4%
COC(CNC(=O)C1CCN(C(=O)c2cc3oc(C)cc3n2Cc2c(F)cccc2Cl)CC1)OC	.	45µM*	-28%	-13%[15.4 µM]	-2.6	-6.3	9.1%
CN(Cc1ccccc1)c1nc2c(c(=O)[nH]c(=O)n2C)n1Cc1ccccc1Cl	0.5%	-17%	6%	3%	-2.3	-1.0	2.0%
Cc1ncoc1C(=O)N1CCCC(C(=O)c2ccc(C(F)(F)F)cc2)C1 (centres undefined)	.	19%	-7%	20%[15.4 µM]	0.8	-2.3	-1.6%
Cn1c(CC(=O)Nc2ccccc2F)nnc1SCC(=O)NC1CCCC1	.	13%	15%	-4%[15.4 µM]	-2.0	-6.6	0.5%
CNC(=O)NC(=O)CSc1nc2sccc2c(=O)n1-c1ccccc1	.	6%	3%	11%	3.6	0.1	-0.1%
COc1cccc(CN2CCN(Cc3cccn3-c3cccnc3)CC2CCO)c1 (centres undefined)	1.1%	10%	50µM*	-13%	-5.3	-1.7	0.7%
Cn1c(=O)c(C(=O)CN2CCc3ccccc32)c(N)n(Cc2ccccc2)c1=O	?	16%	6%	-7%[15.4 µM]	-2.5	5.4	-2.9%
Cn1cnc(S(=O)(=O)N2CCCCC2c2cc(C(=O)Nc3ccc(F)c(Cl)c3)no2)c1 (centres undefined)	-0.4%	.	.	.	1.8	.	1.0%
CCCCOC(=O)C1=C(C)NC(=O)NC1c1ccc([N+](=O)[O-])s1 (centres undefined)	-2.6%	-7%	5%	?	2.0	14	-2.8%
Cc1cc(C)cc(N2CCCC2=O)c1	-2.0%	11%	9%	3%	-1.9	2.1	29%[38.3 µM]
C=C(C)C(=O)Nc1cccc(C2=NOC3(C2)C[C@@H](C(N)=O)N(C(=O)/C(C)=C/C)C3)c1 (some centres undefined)	0.5%	6%	3%	-1%	-2.6	3.6	-0.2%
CC(=O)Nc1ccc(NC(=O)CSc2nnc(C3CC3)n2-c2ccccc2)cc1	-0.2%	.	18%	0%	-2.2	.	0.5%
